DUX4 inh – inhibitors of DUX4-driven ZSCAN4 reporter expression, primary screen, 293T cells, Gaussia and Italica luciferase. activity change, negative = inhibition, % (test concentration not listed). 37,000 tested, 0.8% active. 293T-iDUX4 ZSCAN4-Gaussia luciferase reporter, 24 h; active compounds read low. AID 1224904, 2016;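 active = -10% or lower and over 25 points stronger than a control reporter; inconclusive = -10% or lower with a smaller gap; inactive = above -10%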;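 note: 0% = median of neutral control wells and -100% = median of positive control wells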
DUX4 inh difference – also measured in DUX4 inh; calls as there; Gaussia minus Italica difference, %; measured here: selective DUX4 reporter inhibition;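 worked out from the two reporters; negative = selective loss of the DUX4 reporter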
DUX4 inh control – second read-out of DUX4 inh, no call of its own (marks repeat the call); activity change, negative = inhibition, %; measured here: Italica tet-on control reporter;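 0 = neutral control and -100 = positive control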
* marks the source's active call; other numbers are inactive results; ? = inconclusive; . = not tested or not shown. The list is partial; rates above refer to the full screens.

SMILES	DUX4 inh	DUX4 inh difference	DUX4 inh control
O=C(c1cnccn1)N1CC(=O)N2[C@H](CO)[C@H](c3ccc(C#CC4CC4)cc3)[C@H]2C1	9	2	7.6
CCC(=O)N1[C@H](C#N)[C@@H](c2ccccc2-c2cccc(C)c2)[C@H]1CO	6	-5	10
CN(C)CC(=O)N1[C@@H](CO)[C@@H](c2ccccc2)C12CN(Cc1cccnc1)C2	3	-4	6.8
COC(=O)[C@@H]1[C@@H](CO)[C@@H]2Cn3c(ccc(-c4cccc(C(=O)N(C)C)c4)c3=O)[C@@H]2N1CC1CC1	-5	-4	-0.8
C/C=C/c1ccc([C@@H]2[C@H](CO)N(CC3CC3)C23CN(C(=O)c2ccc4c(c2)OCO4)C3)cc1	?	.	.
C[C@H](CO)N1C[C@H](C)[C@H](CN(C)Cc2ccc3c(c2)OCO3)OCCCC[C@H](C)Oc2ccc(N(C)C)cc2C1=O	-5	-4	-0.9
COc1ccc(S(=O)(=O)Nc2cccc3c2O[C@H](CN(C)C(=O)Nc2cccc4ccccc24)[C@H](C)CN([C@H](C)CO)C3=O)cc1	4	-3	7.4
CC=Cc1ccc2n(c1=O)C[C@@H]1[C@@H](CO)[C@H](C(=O)Nc3ccc(-c4ccccc4)cc3)N(CCC)[C@H]21 (mixture of isomers)	?	.	.
CN(C)C(=O)C[C@H]1CC[C@@H]2[C@H](COC[C@H](O)CN2CC2CCCCC2)O1	15	8	7.3
COCC(=O)N(C)C[C@@H]1Oc2cc(C#CC(C)(C)O)ccc2S(=O)(=O)N([C@@H](C)CO)C[C@H]1C	0	-1	0.6
O=C(C[C@H]1C[C@@H]2c3cc(NC(=O)Nc4ccccc4)ccc3O[C@@H]2[C@H](CO)O1)NCc1ccccc1	-1	2	-2.6
COc1ccc(NC(=O)N[C@H]2CC[C@H](CC(=O)NC3CCCCC3)O[C@H]2CO)cc1	0	0	-0.6
CNC[C@H]1Oc2cc(C3=CCCC3)ccc2S(=O)(=O)N([C@H](C)CO)C[C@@H]1C	4	-2	6.5
O=C(O)C[C@H]1CC[C@H]2[C@@H](COC[C@H](O)CN2S(=O)(=O)c2ccc(Oc3ccccc3)cc2)O1	0	-4	4.0
CCS(=O)(=O)Nc1ccc2c(c1)C(=O)N(C)[C@@H]1CC[C@@H](CC(=O)NCc3ccc(OC)cc3)O[C@@H]1CO2	1	-7	7.5
COc1ccc2c3c([nH]c2c1)[C@H](CO)N(C(=O)Nc1cccc(F)c1)CC31CCN(S(=O)(=O)c2cccc(C)c2)CC1	?	.	.
CCCNC(=O)C[C@H]1CC[C@H]2[C@H](COc3ccc(NC(=O)Cc4cccs4)cc3C(=O)N2C)O1	-4	-1	-2.8
CCC(=O)N1[C@H](CNC(C)=O)[C@@H](c2ccc(-c3ccc(F)cc3)cc2)[C@@H]1CO	-4	-7	2.9
CC(=O)N1CC(=O)N2[C@@H](CO)[C@H](c3ccc(-c4ccncc4)cc3)[C@@H]2C1	18	11	7.6
O=C(C[C@@H]1C=C[C@H](NC(=O)c2cccnc2)[C@H](CO)O1)NCc1ccncn1	4	0	4.4
O=C(c1ccccn1)N1CC2(C1)[C@@H](c1ccccc1)[C@@H](CO)N2C(=O)C1CCCC1	5	4	0.7
N#Cc1ccc(-c2ccc3c(c2)[C@@H]2[C@@H](CCN2Cc2cncnc2)[C@@H](CO)N3)cc1	-1	-5	3.7
O=C(C[C@H]1C[C@@H]2c3cc(NC(=O)Nc4ccccc4F)ccc3O[C@@H]2[C@H](CO)O1)NCc1ccc(Oc2ccccc2)cc1	-6	-3	-2.9
C[C@@H]1CN([C@H](C)CO)C(=O)c2ccccc2-c2ccccc2CO[C@H]1CN(C)S(=O)(=O)c1ccc(F)cc1	9	3	6.4
O=C(C[C@H]1C=C[C@H](NC(=O)C2CC2)[C@H](CO)O1)NCc1ccncc1	0	-1	1.0
CC(=O)N1CC(=O)N2[C@H](CO)[C@H](c3ccc(C#Cc4cccnc4)cc3)[C@H]2C1	-20*	-25*	5.1*
O=C(C[C@H]1C=C[C@H](NC(=O)Nc2ccccc2F)[C@H](CO)O1)NCc1ccc(-c2ccccc2)cc1	9	13	-4.6
O=C(NCC[C@H]1CC[C@@H](NC(=O)c2cnccn2)[C@H](CO)O1)c1ccc2c(c1)OCO2	-5	-2	-3.5
CN1C(=O)c2cc(NC(=O)c3cccs3)ccc2OC[C@@H]2O[C@@H](CC(=O)NCC(F)(F)F)CC[C@H]21	0	-1	0.6
O=C(C[C@H]1CC[C@H]2[C@@H](COC[C@@H](O)CN2C(=O)c2ccc3c(c2)OCO3)O1)NC1CCC1	9	9	0.1
CC(C)NC(=O)N1CCCCN2[C@H](C1)[C@H](c1ccc(Br)cc1)[C@@H]2CO	8	17	-8.7
O=C(C[C@@H]1CC[C@H](NC(=O)Nc2cc(F)ccc2F)[C@H](CO)O1)Nc1ccc(-c2ccccc2)cc1	?	.	.
COc1cccc(-c2ccc(C3[C@@H]4CN(C(=O)C5CCCCC5)C[C@H]3N4)cc2)c1 (stereo partly drawn)	?	1	-10
COc1cccc(NC(=O)Nc2ccc3c(c2)C(=O)N(C)C[C@H](OC)[C@@H](C)CN(C)[C@@H](C)CO3)c1	-3	-1	-2.1
C[C@@H]1CN([C@H](C)CO)C(=O)c2cc(-c3cccc(C(=O)N(C)C)c3)cnc2O[C@H]1CN(C)S(=O)(=O)c1cccc(F)c1	0	-4	3.9
COc1cccc(CNC(=O)C[C@H]2C=C[C@@H](NC(=O)C3CCOCC3)[C@@H](CO)O2)c1	5	2	2.9
COc1cccc(S(=O)(=O)Nc2ccc3c(c2)C(=O)N(C)[C@@H]2CC[C@H](CC(=O)NCC4CCCCC4)O[C@@H]2CO3)c1	-4	-4	0.2
CO[C@@H]1CC[C@@H]2CCOc3ccc(C#N)cc3C(=O)N(C)C[C@H](c3ccccc3)CC(=O)N(C)C[C@H]1O2	2	3	-0.9
Cn1cnc(S(=O)(=O)N2CC[C@@H]3[C@H]2c2cc(C4=CCCCC4)ccc2N[C@@H]3CO)c1	20	18	2.0
CNC[C@H]1OCCCC[C@H](C)Oc2ccc(N)cc2C(=O)N([C@H](C)CO)C[C@@H]1C	1	-2	2.9
CCC(=O)N1[C@@H](CO)[C@@H]2c3ccccc3N(C(=O)c3ccc4c(c3)OCO4)C[C@@H]21	0	-1	0.9
CCC(=O)N1[C@@H]2c3ccc(-c4ccccc4)c(=O)n3C[C@@H]2[C@@H](CO)[C@@H]1C(=O)N(C)C	12	15	-3.1
C[C@H](O)C#Cc1cnc2c(c1)C(=O)N([C@@H](C)CO)C[C@H](C)[C@H](CN(C)C(=O)CN1CCOCC1)O2	7	2	4.7
Cc1ccc(S(=O)(=O)Nc2ccc3c(c2)C(=O)N(C)[C@@H]2CC[C@@H](CC(=O)NCCc4ccncc4)O[C@H]2CO3)cc1	-3	-3	0.6
C[C@@H]1CN([C@H](C)CO)C(=O)c2cccc(NC(=O)c3cnccn3)c2O[C@@H]1CN(C)S(=O)(=O)c1cn(C)cn1	-2	-8	5.9
C[C@H](CO)N1C[C@H](C)[C@H](CN(C)Cc2cccc3c2OCCCO3)OCc2cn(nn2)CCCC1=O	2	0	2.8
O=C(C[C@H]1C=C[C@H](NC(=O)C2CCC2)[C@H](CO)O1)NC1CCCCC1	1	-3	4.0
O=C(C[C@H]1CC[C@@H]2NC[C@H](O)COC[C@H]2O1)Nc1ccccc1	8	2	6.0
CN(C)Cc1cn(CC[C@@H]2CC[C@@H](NC(=O)Nc3ccc4c(c3)OCO4)[C@@H](CO)O2)nn1	-1	0	-1.0
COCC(=O)Nc1ccc2c(c1)[C@@H]1C[C@@H](CC(=O)O)O[C@H](CO)[C@@H]1O2	14	12	2.0
C[C@@H]1CN([C@@H](C)CO)C(=O)c2cc(C#Cc3ccc(F)cc3)cnc2O[C@@H]1CN(C)C	3	1	1.5
O=C(Nc1ccccc1F)N[C@H]1CC[C@H](CC(=O)N2CCCCC2)O[C@H]1CO	-3	-8	4.8
C[C@@H]1CN([C@H](C)CO)C(=O)CCCn2cc(nn2)CO[C@@H]1CN(C)Cc1ccc2c(c1)OCCN2C	?	.	.
COc1ccccc1-c1ccc2c(c1)O[C@@H](CN(C)CC1CCOCC1)[C@@H](C)CN([C@H](C)CO)S2(=O)=O	-2	1	-3.1
CCCC(=O)Nc1ccc2c(c1)C(=O)N(C)[C@H]1CC[C@H](CC(=O)NCC(F)(F)F)O[C@H]1CO2	1	-2	2.3
CN1C[C@H](O)COC[C@H]2O[C@H](CC(=O)NC3CCCC3)CC[C@@H]21	4	4	0.3
Cc1ccccc1-c1cnc2c(c1)C(=O)N([C@@H](C)CO)C[C@H](C)[C@@H](CN(C)CC1CCOCC1)O2	2	-1	3.4
C[C@@H]1CN([C@H](C)CO)C(=O)c2cc(NC(=O)Nc3cccc4ccccc34)ccc2O[C@@H](C)CCCCO[C@@H]1CN(C)C(=O)NC1CCCCC1	3	-1	4.7
CCCN(C)C[C@H]1Oc2cc(C#Cc3cccnc3)ccc2S(=O)(=O)N([C@H](C)CO)C[C@H]1C	0	0	-0.1
CCCC#Cc1cnc2c(c1)C(=O)N([C@@H](C)CO)C[C@H](C)[C@H](CN(C)Cc1ccccc1F)O2	1	-1	1.9

A different layout for 12 compounds above:
Below each compound – DUX4 inh | DUX4 inh difference | DUX4 inh control
> CCC(=O)N1[C@@H](CO)[C@@H]2c3ccccc3N(C(=O)c3ccc4c(c3)OCO4)C[C@@H]21
    0 | -1 | 0.9
> CCC(=O)N1[C@@H]2c3ccc(-c4ccccc4)c(=O)n3C[C@@H]2[C@@H](CO)[C@@H]1C(=O)N(C)C
    12 | 15 | -3.1
> C[C@H](O)C#Cc1cnc2c(c1)C(=O)N([C@@H](C)CO)C[C@H](C)[C@H](CN(C)C(=O)CN1CCOCC1)O2
    7 | 2 | 4.7
> Cc1ccc(S(=O)(=O)Nc2ccc3c(c2)C(=O)N(C)[C@@H]2CC[C@@H](CC(=O)NCCc4ccncc4)O[C@H]2CO3)cc1
    -3 | -3 | 0.6
> C[C@@H]1CN([C@H](C)CO)C(=O)c2cccc(NC(=O)c3cnccn3)c2O[C@@H]1CN(C)S(=O)(=O)c1cn(C)cn1
    -2 | -8 | 5.9
> C[C@H](CO)N1C[C@H](C)[C@H](CN(C)Cc2cccc3c2OCCCO3)OCc2cn(nn2)CCCC1=O
    2 | 0 | 2.8
> O=C(C[C@H]1C=C[C@H](NC(=O)C2CCC2)[C@H](CO)O1)NC1CCCCC1
    1 | -3 | 4.0
> O=C(C[C@H]1CC[C@@H]2NC[C@H](O)COC[C@H]2O1)Nc1ccccc1
    8 | 2 | 6.0
> CN(C)Cc1cn(CC[C@@H]2CC[C@@H](NC(=O)Nc3ccc4c(c3)OCO4)[C@@H](CO)O2)nn1
    -1 | 0 | -1.0
> COCC(=O)Nc1ccc2c(c1)[C@@H]1C[C@@H](CC(=O)O)O[C@H](CO)[C@@H]1O2
    14 | 12 | 2.0
> C[C@@H]1CN([C@@H](C)CO)C(=O)c2cc(C#Cc3ccc(F)cc3)cnc2O[C@@H]1CN(C)C
    3 | 1 | 1.5
> O=C(Nc1ccccc1F)N[C@H]1CC[C@H](CC(=O)N2CCCCC2)O[C@H]1CO
    -3 | -8 | 4.8

(list continues)
SMILES	DUX4 inh	DUX4 inh difference	DUX4 inh control
COc1ccc(S(=O)(=O)N[C@H]2CC[C@H](CC(=O)O)O[C@H]2CO)cc1	4	0	3.9
O=C(CC(F)(F)F)N1C[C@H]2[C@@H](c3ccccc31)[C@H](CO)N2C(=O)C1CCOCC1	-6	-1	-4.5
C[C@H]1CN([C@@H](C)CO)C(=O)c2cccc(NC(=O)CCCCCC(=O)Nc3ccccc3N)c2O[C@@H]1CN(C)Cc1ccc(Cl)c(Cl)c1	-1	-3	2.0
COC(=O)C[C@@H]1CC[C@H]2[C@@H](COC[C@@H](O)CN2S(=O)(=O)c2ccccc2C)O1	12	13	-1.5
COc1ccc(C[C@H]2CCn3cc(nn3)COC[C@H](CC(C)C)NC2=O)cc1	0	-1	0.7
CNC[C@H]1OCCCC[C@H](C)Oc2ccc(NS(=O)(=O)c3c(C)noc3C)cc2C(=O)N([C@@H](C)CO)C[C@@H]1C	4	1	2.9
COc1ccccc1-c1ccc2n(c1=O)C[C@H]1[C@H](CO)[C@@H](C(=O)O)N(C(=O)c3cccnc3)[C@@H]21	-7	-14	7.3
COCC(=O)Nc1ccc2c(c1)C(=O)N(C)[C@@H]1CC[C@@H](CC(=O)Nc3cn(C)nc3C)O[C@@H]1CO2	9	4	4.9
CC(C)C#Cc1ccc([C@H]2[C@H]3CN(C(=O)C4CCCCC4)CC(=O)N3[C@H]2CO)cc1	-3	-6	2.9
O=C(Nc1ccccc1)N1CCCCN2[C@H](CO)[C@@H](c3ccc(Br)cc3)[C@H]2C1	2	-3	5.0
COc1ccc(NC(=O)Nc2ccc3c(c2)[C@@H]2C[C@H](CC(=O)NCc4ccc(-c5ccccc5)cc4)O[C@@H](CO)[C@@H]2O3)cc1	?	.	.
C[C@H](CO)N1C[C@H](C)[C@H](CN(C)Cc2cccnc2)OCc2ccccc2-c2c(n(C)c3ccccc23)C1=O	?	.	.
O=C1CN(S(=O)(=O)c2ccccc2)C[C@@H]2[C@H](c3ccc(C#CCc4ccccc4)cc3)[C@H](CO)N12	?	.	.
CCN1[C@@H]2Cn3c(ccc(C4=CCCC4)c3=O)[C@H]1[C@@H](C(=O)NCc1ccccn1)[C@@H]2CO	1	0	0.8
O=C(CC(F)(F)F)N1C[C@H]2[C@@H](c3ccccc31)[C@H](CO)N2CC1CCOCC1	2	1	1.3
